D2 potentiator: positive allosteric modulators of human D2 dopamine receptor; 0.23% of 360,000 active; potentiation, % (test concentration not listed); P14416; AID 624464; DiscoveRx D2 beta-arrestin cells, luminescence, 90 min; 100% = 57 uM dopamine signal; active = potentiation of 50% or more; inconclusive = 30% to 50%; inactive = 30% or less;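 also: compound concentration not given in the record; tested on top of an EC20 dose of dopamine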
Target sequence (P14416 whole entry, looked up): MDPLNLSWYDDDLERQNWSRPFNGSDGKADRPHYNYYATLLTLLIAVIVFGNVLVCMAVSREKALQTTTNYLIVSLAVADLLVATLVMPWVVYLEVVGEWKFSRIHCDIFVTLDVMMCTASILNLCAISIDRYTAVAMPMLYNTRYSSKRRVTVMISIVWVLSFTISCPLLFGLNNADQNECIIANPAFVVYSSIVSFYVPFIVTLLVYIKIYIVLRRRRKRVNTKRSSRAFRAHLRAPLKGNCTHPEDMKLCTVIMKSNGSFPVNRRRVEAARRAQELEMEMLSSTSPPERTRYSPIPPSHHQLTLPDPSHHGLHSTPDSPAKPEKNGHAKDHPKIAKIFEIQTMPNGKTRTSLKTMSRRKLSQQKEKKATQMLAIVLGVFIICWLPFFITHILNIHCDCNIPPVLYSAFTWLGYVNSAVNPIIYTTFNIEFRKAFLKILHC
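D2 cells co-treated with compound plus 50 nM dopamine (EC20) for 90 min at 37 deg C to detect potentiation. Beta-arrestin recruitment was read as enzyme-fragment luminescence after 1 h at ambient temperature. Full response was set by 57 uM dopamine.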
gsp agonist: gsp mutant agonism | gsp mutant cells, cAMP HTRF, 30 min; control for the full effect not named in the record | Potency, µM (top dose mostly 76.9 µM), inactives show top-dose activation (cAMP increase), most hits filed as activators | 0.13% of 340,000 active | AID 624287; active = well fitted activation curve with a large enough effect; inconclusive = small, poorly fitted or top-dose-only effect, or another doubt; inactive = no such curve, though single readings can be large or run the other way; cell line not stated here;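 also: phosphodiesterase inhibitor Ro 20-1724 added with compounds to block cAMP breakdown; potency is read from the fitted curve at half-maximal effect; nearly all actives have a fitted effect of over 60% in size; about a fifth of the inactives were tested at one dose only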
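Cells in DMEM/10% FBS with G418 were pretreated with compounds in DMSO plus […] (300 uM stock) for 30 min at 37C. cAMP was measured by HTRF (cAMP-d2 plus anti-cAMP antibody-K) after 30 min at room temperature.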
D2 ag: human D2 receptor agonism in beta-arrestin assay; DiscoveRx PathHunter D2 beta-arrestin, luminescence, 90 min; 100% = 57 uM dopamine signal; P14416; activation, % (test concentration not listed); 0.084% of 360,000 active; AID 624465; in the data active = activation above about 40%; inconclusive = about 15% to 40%; inactive = below about 15%; also: compound concentration not given in the record; the text of the record calls up to 30% inactive
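DiscoveRx PathHunter D2 beta-arrestin cells (2,100/well) attached overnight, then compound-stimulated 90 min at 37 C in HBSS/10 mM HEPES/0.1% Tween-20 buffer; beta-galactosidase complementation read by luminescence after 1 h at ambient temperature. Dopamine 57 uM final (EC100) as control.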
CtBP-E1A blk: CtBP/E1A binding inhibition. AlphaScreen GST-E1A/His-CtBP binding, 1536-well; stronger effect = lower value; control for the full effect not named in the record. activity change, % (concentration not given with the values). 0.49% of 340,000 active. AID 651724; in the data active means activity change below about -65%; inconclusive means about -30% to -65%; inactive means above about -30%; also: % is scaled to controls: 0 for no effect and ±100 for the full control effect
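Homogeneous bead-based format: GST-tagged E1A captured on glutathione donor beads, His-tagged CtBP on nickel acceptor beads; compounds precede bead addition by 2 h at 37 °C.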
Six1-Eya2 inh: inhibitors of human Six1/Eya2 interaction; Q15475+O00167; AlphaScreen GST-Six1/His-Eya2 binding, biochemical; stronger effect = lower value; control for the full effect not named in the record; activity change, % (test concentration not listed); 0.56% of 360,000 active; AID 651725; in the data active = activity change below about -65%; inconclusive = about -30% to -65%; inactive = above about -30%; also: % is scaled to controls: 0 for no effect and ±100 for the full control effect; compound concentration not given in the record
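GST-Six1 + His-Eya2 (5X stock: 250/500 nM); Tris pH 8.0, 300 mM NaCl, 0.05% BSA, 0.02% Tween 20; GSH donor/Ni acceptor beads; 1 h 37 °C dark; AlphaScreen readout.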
gsp antag: antagonizes gsp, the McCune-Albright syndrome mutation; gsp-mutant cells, cAMP HTRF, 30 min; control for the full effect not named in the record; 0.4% of 340,000 active; Potency, µM (doses to about 76.9 µM), for inactives: at the highest dose activity change, negative = inhibition, hits mostly inhibitors; AID 624288; active = falling curve of any shape with a large fitted effect; inconclusive = falling curve, mostly with a smaller effect; inactive = flat or rising curve; cell line not stated here;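 also: intracellular cAMP measured with PDE inhibitor Ro 20-1724 present during compound exposure; potency is read from the fitted curve at half-maximal effect; % is scaled to controls: 0 for no effect and ±100 for the full control effect; nearly all actives have a fitted effect of over 65% in size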
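Cells in G418 medium, seeded 16-24 h, 37C; buffer exchange to DPBS + 1 mM CaCl2, 0.5 mM MgCl2, 0.05% BSA; cpds in DMSO + […] (300 uM stock), 30 min 37C; HTRF cAMP detection.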
An asterisk follows results filed as active; [ ] = another dose, or the depositor's remark.

`CN(C)CCCNC(=O)/C=C/c1ccc2c(c1)OCO2` gave D2 potentiator 4, gsp agonist -1%[15.4 µM], D2 ag 2.4, CtBP-E1A blk -3, Six1-Eya2 inh 1 and gsp antag 7%.
COc1cc(C(C)=O)ccc1OCC(=O)NCC(c1ccc(F)cc1)N1CCOCC1 (centres undefined) was read as D2 potentiator -1, gsp agonist -11%, D2 ag 4.2, CtBP-E1A blk 3, Six1-Eya2 inh 6 and gsp antag 4%.
Screening Cc1ccc(C)c(OC(=O)c2cccc(S(=O)(=O)N3CCN(C)CC3)c2)c1 returned D2 potentiator -7, gsp agonist inconclusive, D2 ag -1.6, CtBP-E1A blk -8, Six1-Eya2 inh -9 and gsp antag -4%.
CCc1ccc(N2CC(C(=O)NCCC3=CCCCC3)CC2=O)cc1 (centres undefined) was read as D2 potentiator 1, gsp agonist -20%, D2 ag 1.4, CtBP-E1A blk 7, Six1-Eya2 inh 11 and gsp antag 10%.
CSc1ncccc1C(=O)OC(C)C(=O)Nc1ccc2c(c1)OCCO2 (centres undefined) was read as D2 potentiator -10, gsp agonist inconclusive, D2 ag -3.6, CtBP-E1A blk 2 and Six1-Eya2 inh -2.
Cc1ccc(C(=O)CC2(O)C(=O)N(Cc3ccc4c(c3)OCO4)c3ccccc32)cc1 (centres undefined) was read as D2 potentiator 7, gsp agonist 12%, D2 ag -2.5, CtBP-E1A blk 0, Six1-Eya2 inh -1 and gsp antag -6%.
Screening NC(=O)c1nsc(C(=O)N(c2ccccc2)C(C(=O)NC2CCCC2)c2ccncc2)c1N (centres undefined) returned D2 potentiator 0, gsp agonist -3%[15.4 µM], D2 ag 5.7, CtBP-E1A blk 26, Six1-Eya2 inh 0 and gsp antag -21%.
For CC(C)CNC(=S)N1CCC(c2nc(-c3ccc(F)cc3)no2)CC1 the results were D2 potentiator -24, gsp agonist 5%[15.4 µM], D2 ag -3.5, CtBP-E1A blk 0, Six1-Eya2 inh -1 and gsp antag inconclusive.
Cc1ccccc1CS(=O)(=O)c1cn(CC(=O)N2CCC(C)CC2)c2ccccc12 was read as D2 potentiator -13, gsp agonist 26%, D2 ag 0.0, CtBP-E1A blk 6, Six1-Eya2 inh -4 and gsp antag -17%.
CCOC(=O)[C@@H]1[C@H]2COc3ccc(Br)cc3[C@@H]2N2C(=O)N(c3ccccc3)C(=O)[C@@]12C was read as D2 potentiator -15, D2 ag -1.9, CtBP-E1A blk -21, Six1-Eya2 inh -7 and gsp antag 1%.
`O=C(COc1ccccc1Cl)Nc1nnc(S(=O)(=O)N2CCCCCC2)s1` gave D2 potentiator -2, gsp agonist 5%, D2 ag -3.2, CtBP-E1A blk -24, Six1-Eya2 inh 1 and gsp antag -4%.
COC(=O)N/N=C/c1ccc(-c2cccc(Cl)c2)o1 was read as D2 potentiator 0, gsp agonist -11%[15.4 µM], D2 ag -0.4, CtBP-E1A blk -6, Six1-Eya2 inh -17 and gsp antag -7%.
For CN1C[C@@H]2[C@@H]3C(=O)N(C)C(=O)[C@@H]3[C@](Cc3ccccc3)(C1=O)N2C(=O)c1ccc(F)cc1 the results were D2 potentiator -3, D2 ag -3.2, CtBP-E1A blk -5, Six1-Eya2 inh -10 and gsp antag inconclusive.
Screening COc1ccc(Cl)cc1C(=O)NCC(C)C returned D2 potentiator 0, gsp agonist 12%, D2 ag -3.5, CtBP-E1A blk 4, Six1-Eya2 inh 1 and gsp antag 3%.
O=C(OCC(=O)N1CCOCC1)c1ccccc1OCc1ccccc1Cl was read as D2 potentiator -7, gsp agonist -15%, D2 ag -0.3, CtBP-E1A blk 2, Six1-Eya2 inh 5 and gsp antag -11%.
Screening CC(C)OP(=O)(c1ccc(N(C)C)cc1)C(O)c1ccc(C(C)C)cc1 (centres undefined) returned D2 potentiator -4, gsp agonist inconclusive, D2 ag -2.6, CtBP-E1A blk 0, Six1-Eya2 inh -2 and gsp antag 6%.
Screening O=C(Nc1ccccc1C(=O)NCc1cccnc1)c1ccccc1Cl returned D2 potentiator -10, gsp agonist -2%[15.4 µM], D2 ag -2.8, CtBP-E1A blk 1, Six1-Eya2 inh 10 and gsp antag 8%.
`CCN1CCCC1CNC(=O)c1cc2c(C)nc3ccccc3c2o1` (centres undefined) gave D2 potentiator -32, gsp agonist 0%, D2 ag -2.2, CtBP-E1A blk 5, Six1-Eya2 inh 2 and gsp antag 7%.
O=C(c1ccco1)N1CCN(C(c2ccc(Cl)cc2)c2nnnn2CC2CCCO2)CC1 (centres undefined) was read as D2 potentiator 1, gsp agonist -2%, D2 ag -3.5, CtBP-E1A blk 12, Six1-Eya2 inh 1 and gsp antag -6%.
Screening COc1ccccc1N1CC(C(=O)Nc2ccc(S(=O)(=O)N3CCOCC3)cc2)CC1=O (centres undefined) returned D2 potentiator -5, gsp agonist -61%[inhibitor], D2 ag -1.7, CtBP-E1A blk 3, Six1-Eya2 inh -3 and gsp antag 12%.
Screening CCCc1nc2c(=O)n(C)c(=O)[nH]c2n1C returned D2 potentiator 1, gsp agonist 2%, D2 ag -4.2, CtBP-E1A blk -4, Six1-Eya2 inh 0 and gsp antag 4%.
Screening CN(C)C1=NCCN1CCCC1CCCC1 returned D2 potentiator -7, gsp agonist 4%, D2 ag -2.5, Six1-Eya2 inh 6 and gsp antag 9%.
For CCC(C)[C@H](NC(=O)[C@H](Cc1ccccc1)n1c(=O)[nH]c2ccccc2c1=O)C(=O)N1CCC[C@@H]1C(=O)O (some centres undefined) the results were D2 potentiator -13, D2 ag -3.7, CtBP-E1A blk 3, Six1-Eya2 inh 3 and gsp antag 8%.
For CC1=CC(C)C2C(=O)N(O)C(=O)C2C1 (centres undefined) the results were D2 potentiator -1, gsp agonist inconclusive, D2 ag 1.5, CtBP-E1A blk 12, Six1-Eya2 inh 4 and gsp antag 10%.
COc1ccccc1N1CCN(/N=C/c2cccc(OC)c2OC)CC1 was read as D2 potentiator 0, gsp agonist 4%, D2 ag 2.1, CtBP-E1A blk 0, Six1-Eya2 inh 9 and gsp antag -9%.
`O=C(COC(=O)COc1ccc(Br)cc1)NCc1ccc2c(c1)OCO2` gave D2 potentiator -5, gsp agonist 3%, D2 ag 3.5, CtBP-E1A blk 10, Six1-Eya2 inh 2 and gsp antag -4%.
For CS(=O)(=O)N(CC(=O)NC1CCCCCC1)Cc1ccc(Cl)cc1 the results were D2 potentiator -3, gsp agonist inconclusive, D2 ag -4.2, CtBP-E1A blk 3, Six1-Eya2 inh 7 and gsp antag -5%.
`CCC(CC)c1nnc(NC(=O)c2ccco2)s1` gave D2 potentiator 0, gsp agonist 16%, D2 ag -3.5, CtBP-E1A blk 0, Six1-Eya2 inh -7 and gsp antag 9%.
For COc1ccc(CCNc2c([N+](=O)[O-])c(=O)oc3ccccc23)cc1OC the results were D2 potentiator 2, gsp agonist -9%, D2 ag -1.0, CtBP-E1A blk 5, Six1-Eya2 inh 7 and gsp antag -1%.
Screening O=C1C2C3C=CC(C3=C(c3ccccc3)c3ccccc3)C2C(=O)N1Cc1ccccc1 (centres undefined) returned D2 potentiator 1, gsp agonist 11%, D2 ag -3.4, CtBP-E1A blk 0, Six1-Eya2 inh -14 and gsp antag -10%.
For CCc1sc(C(=O)NCc2ccccc2)cc1C the results were D2 potentiator -12, gsp agonist 10%[15.4 µM], D2 ag -1.1, CtBP-E1A blk 5, Six1-Eya2 inh 2 and gsp antag 10%.
O=C(OCc1cc(=O)n2ccsc2n1)c1ccccc1O was read as D2 potentiator 3, gsp agonist -3%[15.4 µM], D2 ag -3.0, CtBP-E1A blk -5, Six1-Eya2 inh -8 and gsp antag -1%.
C=CCNC(=S)N/N=C/c1ccc(OCc2ccccc2)cc1 was read as D2 potentiator -9, gsp agonist -47%[inhibitor], D2 ag -1.4, Six1-Eya2 inh 4 and gsp antag 7%.
O=C(Nc1ccc(Cl)cc1Cl)NC1CCCC1 was read as D2 potentiator -8, gsp agonist -30%[inhibitor], D2 ag -3.2, CtBP-E1A blk -4, Six1-Eya2 inh -10 and gsp antag -2%.
For CCc1cc2c(=O)n(Cc3ccco3)c(SCC(=O)N(C)C3CCS(=O)(=O)C3)nc2s1 (centres undefined) the results were D2 potentiator -6, gsp agonist -2%[15.4 µM], D2 ag 3.2, CtBP-E1A blk -3, Six1-Eya2 inh -10 and gsp antag -34%.
COc1ccccc1NS(=O)(=O)c1cc(NC(=O)C(C)(C)C)ccc1N1CCOCC1 was read as D2 potentiator 2, gsp agonist -2%, D2 ag -1.4, CtBP-E1A blk 1, Six1-Eya2 inh 3 and gsp antag 1%.
CN(CC(=O)N1CCN(c2ccccn2)CC1)S(=O)(=O)c1ccccc1 was read as D2 potentiator -7, gsp agonist 3%, D2 ag 3.6, CtBP-E1A blk -1, Six1-Eya2 inh 3 and gsp antag 11%.
For CCCc1c(C(=O)N/N=C/c2ccc(OCc3ccc(F)cc3)cc2)nnn1-c1nonc1N the results were D2 potentiator 2, gsp agonist -11%, D2 ag -1.8, CtBP-E1A blk 5 and Six1-Eya2 inh 4.
`Cc1cc(O)c2c(c1)C(=O)c1cc(O)cc(O)c1C2=O` gave D2 potentiator -4, D2 ag -4.6, CtBP-E1A blk inconclusive, Six1-Eya2 inh -2 and gsp antag -8%.
Screening O=C1CC(O)(C(F)(F)F)Oc2c1ccc1ccccc21 (centres undefined) returned D2 potentiator 11, gsp agonist -10%, D2 ag 6.8, CtBP-E1A blk 11, Six1-Eya2 inh 3 and gsp antag -7%.
Screening N#CCCN(C(=O)COC(=O)c1ccc(CNS(=O)(=O)c2ccc(F)c(Cl)c2)cc1)c1ccc(F)cc1 returned D2 potentiator 13, gsp agonist -25%, D2 ag 1.8, CtBP-E1A blk 9, Six1-Eya2 inh 5 and gsp antag -10%.
For CCOC(=O)[C@H]1[C@H]2COc3ccc(C)cc3[C@@H]2N2C(=O)CN(Cc3ccc(OC)cc3)C(=O)[C@@]12C the results were D2 potentiator 2, D2 ag -2.2, CtBP-E1A blk 0, Six1-Eya2 inh -2 and gsp antag -11%.
For CCCC(=O)N1CCC1(C)C(=O)NS(=O)(=O)c1cc2c(cc1C)CCCS2(=O)=O (centres undefined) the results were D2 potentiator -4, D2 ag -4.1, CtBP-E1A blk 7 and Six1-Eya2 inh 8.
`CCCCCCN1C[C@H](O)[C@@H](n2cc(COC(=O)c3ccccc3)nn2)C[C@@H]1c1ccccc1` gave gsp agonist inconclusive, D2 ag 2.1, CtBP-E1A blk 2 and Six1-Eya2 inh -4.

Source: PubChem (National Center for Advancing Translational Sciences (NCATS))
